RGS16-Gao: modulators of RGS16 binding to Galphao, primary screen, biochemical, human proteins, multiplexed bead flow cytometry; binding response (% of control), % at 10 µM; bead-based flow cytometry RGS16-Galphao binding, fluorescence; actives lie on both sides; Regulator of G-protein signaling 16 (Homo sapiens) + Guanine nucleotide-binding protein …; 0.38% of 220,000 active;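 active means below 25% or above 175%, edge rows of some plates excepted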;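 further: Galphao activated by GDP with aluminum fluoride before binding; 100% = wells without compound and 0% = beads without RGS; some results beyond the cut were filed as inactive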
Target sequence (O15492 whole entry, looked up): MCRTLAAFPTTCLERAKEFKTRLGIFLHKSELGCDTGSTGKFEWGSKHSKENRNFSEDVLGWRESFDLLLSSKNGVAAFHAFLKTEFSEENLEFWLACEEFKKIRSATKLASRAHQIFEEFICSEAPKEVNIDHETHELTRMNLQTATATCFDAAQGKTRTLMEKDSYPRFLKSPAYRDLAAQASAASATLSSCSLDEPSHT
Target sequence (P09471 whole entry, looked up): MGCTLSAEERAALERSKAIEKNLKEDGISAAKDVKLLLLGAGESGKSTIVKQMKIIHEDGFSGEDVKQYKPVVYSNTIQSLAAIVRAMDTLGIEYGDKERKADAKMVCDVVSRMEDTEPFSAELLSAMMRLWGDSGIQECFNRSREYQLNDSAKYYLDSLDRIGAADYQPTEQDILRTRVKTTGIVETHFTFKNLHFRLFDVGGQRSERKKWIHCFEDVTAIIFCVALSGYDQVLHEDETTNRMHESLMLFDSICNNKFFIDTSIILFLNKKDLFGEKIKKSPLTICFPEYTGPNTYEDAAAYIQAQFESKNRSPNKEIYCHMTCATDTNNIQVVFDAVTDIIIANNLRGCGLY
PKD1 inh: inhibitors of human PKD1 kinase, biochemical, fluorescence polarization; inhibition, %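 (about 10 µM by stock and volumes)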; AID 797, 2007; Serine/threonine-protein kinase D1 (Homo sapiens), Q15139; 0.056% of 200,000 active; PKD1 kinase fluorescence polarization assay;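 active means inhibition of 50% or more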;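 further: controls were vehicle for no effect and a reference inhibitor for full effect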
GALR2 ag: GALR2 receptor agonists, primary screen, cell-based. Galanin receptor type 2 (Homo sapiens), O43603. GALR2-expressing cells, agonist activation read-out. activation, %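 (tested at 5 µM)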. 0.48% of 140,000 active. AID 803, 2007;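 active means above mean plus 3 SD of all compounds, about 5% in these data, not always enough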;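 further: 0% = vehicle buffer wells and 100% = reference agonist at full effect; tested in CHO reporter cells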
Target sequence (O43603 whole entry, looked up): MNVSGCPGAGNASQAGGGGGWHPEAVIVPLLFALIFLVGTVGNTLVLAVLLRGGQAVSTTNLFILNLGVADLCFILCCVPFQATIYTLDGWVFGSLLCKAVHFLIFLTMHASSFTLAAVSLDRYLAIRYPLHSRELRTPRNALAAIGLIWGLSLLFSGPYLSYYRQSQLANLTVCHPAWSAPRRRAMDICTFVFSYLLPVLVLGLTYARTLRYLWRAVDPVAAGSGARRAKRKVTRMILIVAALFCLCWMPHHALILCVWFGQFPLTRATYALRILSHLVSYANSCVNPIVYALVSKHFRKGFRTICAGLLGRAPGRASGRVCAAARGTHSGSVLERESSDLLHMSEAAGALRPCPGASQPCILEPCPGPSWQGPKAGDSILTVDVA
HSV augment: enhancers of HSV replication in host cells, fold increase, host cell viability; HSV replication augmentation in cells; maximum fold increase; 0.005% of 220,000 active; AID 1956, 2009;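 active means peak rise of 1.5-fold or more in the series; tested in PC3 cells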;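 further: first round at 10 µM; read as green reporter fluorescence; hits show the peak of a series up to 25 µM; 1 = signal of infected wells without compound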
Insulin prom inh: inhibitors of insulin promoter-driven GFP, primary screen, imaging, TRM-6 cells (human fetal islet line), eGFP reporter, cell count | reporter expression induced with tamoxifen | inhibition, % at 2 µM | 0.9% of 130,000 active | AID 1273, 2008;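 active means inhibition above the mean plus 3 SD, with well images judged a real hit on visual review, cut at about 60% in these data, passing the limit was not always enough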
Insulin prom inh cell count: further read-out of Insulin prom inh, marked with its call; normalized cell count, %; measured here: cell count, toxicity; reference of the scale not given here;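 cells exposed to compound for 48 h; stained nuclei by imaging scaled within each plate; lower means fewer cells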
HSV augment primary fold: second read-out of HSV augment, no call of its own (marks repeat the call); fold increase; compound at 10 µM; measured here: primary screen fold increase 10 uM; tested in PC3 cells;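 GFP signal in the first replicate; 1 = infected wells without compound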
Active calls of the source: *; i = inactive; . = no result given.

SMILES,HSV augment primary fold,PKD1 inh,Insulin prom inh,RGS16-Gao,GALR2 ag,HSV augment,Insulin prom inh cell count
Cc1nn(-c2ccccc2)c2sc(C(=O)N(Cc3ccco3)C(C)C(=O)NC(C)(C)C)cc12 (stereo not given),.,4,23,99,0.4,.,186
COc1ccc(C2C(C#N)=C(N)OC3=C2C(=O)CCC3)cc1Cn1nc(C)c([N+](=O)[O-])c1C (stereo not given),0.86,-11,-43,107,-1.4,i,114
Cc1cc(NC(=O)Cc2c(F)cccc2Cl)no1,0.99,0,-4,103,-0.2,i,136
CNC(=O)C(=O)Nc1nc(C23CC4CC(CC(C4)C2)C3)cs1,1,1,7,107,.,i,133
COc1ccccc1NCC(=O)NNCC(=O)Nc1ccc(F)c(Cl)c1,1,-4,-33,104,.,i,103
CC1S/C(=C(\C#N)C(=O)NCc2ccco2)N(c2ccc(F)cc2)C1=O (stereo not given),1.1,0,6,104,-0.7,i,57
Nc1nnc(SCC(=O)NC2CCCCC2)s1,1,-1,0,107,0.4,i,124
COCCNC(=O)c1cccc(NS(=O)(=O)c2cccc3cccnc23)c1,1.1,6,.,106,-1.4,i,.
O=C(CN1CCN(c2ccccn2)CC1)Nc1ccc(Oc2ccccc2)cc1,0.98,4,-52,107,-1.0,i,135
COc1ccccc1CNc1cc(C)ccc1C,0.87,-9,21,105,-2.4,i,133
COc1cc(/C(C)=N\NC(N)=S)cc(OC)c1OC,1.1,-11,0,80,0.0,i,146
O=C(CSc1nc(-c2ccco2)cc(C(F)(F)F)n1)NC1CCCCCCC1,0.99,-7,-22,39,-1.8,i,105
O=S(=O)(NCc1cc(-c2ccccc2)no1)c1ccccc1Cl,.,-3,21,101,.,.,148
Cn1nc(C(=O)Nc2cccc(C(F)(F)F)c2)c2ccccc2c1=O,.,-11,.,104,0.2,.,.
O=C(O)CSc1nnc(C2COc3ccccc3O2)n1-c1ccccc1 (stereo not given),0.84,12,.,101,-1.1,i,.
Cc1cccc(OCCNc2cc(N3CCN(CCO)CC3)ccc2[N+](=O)[O-])c1,0.72,9,-29,104,-0.1,i,110
CC[N+](CC)(CC)CC(=O)Nc1ccc(SC(F)F)cc1,0.89,-5,.,99,.,i,.
NC(=O)C(c1ccccc1)C1CCCCC1 (stereo not given),1.1,-5,25,110,-0.4,i,118
Cc1cc(C(=O)OCC(=O)NCc2ccc(Cl)cc2)c(C)o1,1,-1,-17,112,.,i,67
O=C(O)CCCCCN1C(=O)C(O)=C(C(=O)/C=C/c2ccccc2)C1c1ccccc1[N+](=O)[O-] (stereo not given),1.1,3,.,77,.,i,.
Cc1ccc(C(=O)NCC(=O)NCC(=O)OCc2ccc(Cl)cc2)cc1,0.9,-10,-13,95,-0.1,i,127
CCn1c(=O)cc(OCC(=O)O)c2ccccc21,1,-11,.,107,-3.1,i,.
CCN=C1SC(CC(=O)NC(C)c2ccccc2)C(=O)N1CC (stereo not given),0.86,-10,.,101,.,i,.
COc1ccc(C2c3ccc(O)cc3Oc3ncn(CCCO)c(=N)c32)cc1OC (stereo not given),0.9,.,.,102,.,i,.
Fc1cccc(Cc2noc(CN3CCCN(C4Cc5ccccc5C4)CC3)n2)c1,0.97,-2,-7,99,.,i,96
COCCn1c(SCCOc2ccccc2)nc2ccccc2c1=O,0.91,-108,.,100,.,i,.
COc1ccccc1NC(=O)c1sc2ncn(Cc3ccccc3C)c(=O)c2c1C,1.2,0,23,98,-2.8,i,68
COc1cc(-c2nc(S(=O)(=O)c3ccccc3)c(N3CCOCC3)o2)cc(OC)c1OC,0.96,-7,71,45,0.3,i,124
CC(=O)c1c(C)[nH]c(C(=O)CSc2nnc(-c3ccccc3)o2)c1C,1,-10,3,102,-2.8,i,120
CN(C)S(=O)(=O)c1ccc(C(=O)Nc2nnc(-c3ccc4c(c3)CCCC4)o2)cc1,0.89,1,.,101,-0.9,i,.
O=C(Nc1ccc(Br)cc1)C1CCCN(S(=O)(=O)c2cccnc2)C1 (stereo not given),0.9,-2,.,97,.,i,.
O=C(O)CCC(=O)N1N=C(c2cccs2)CC1c1cn(-c2ccccc2)nc1-c1ccccc1 (stereo not given),0.99,-9,61,142,0.1,i,109
COc1cccc(/C(O)=C2/C(=O)C(=O)N(CCN3CCOCC3)C2c2cccs2)c1 (stereo not given),.,-1,-8,140,-3.5,.,107
CC1(C)N=C(c2ccc(Cl)cc2)C(=O)N1,0.86,-3,.,100,-0.8,i,.
Cc1nn(CC(=O)NCc2cccnc2)c(=O)c2ccccc12,1,-9,-14,100,-0.3,i,113
CCCNC(=O)c1ccc(Cn2c(=S)[nH]c3c([nH]c4ccc(OC)cc43)c2=O)cc1,0.94,-5,-11,98,0.7,i,113
COC(=O)c1ccccc1NC(=O)c1cccs1,0.87,-1,62,107,-1.2,i,160
CC1=C(C(=O)N2CCOCC2)C(c2cccc3ccccc23)NC(=S)N1 (stereo not given),0.96,-8,.,104,-0.4,i,.
CC(C)OC(=O)NCCOC(=O)Nc1ccc(Cl)cc1,0.93,-6,.,108,.,i,.
CC(C)n1c(NCc2c[nH]c3ccccc23)nc2ccccc21,.,-3,-16,95,-3.0,.,94
COc1cc(S(=O)(=O)N2CCN(c3ccccc3F)CC2)ccc1Cl,0.97,-12,-42,84,-1.6,i,80
CCSc1nc(N)nc(-c2cccs2)c1C#N,0.96,11,.,107,-0.8,i,.
CC(C)C1O/C(=N/C(=O)Nc2ccc(Cl)c(Cl)c2)NC1=O (stereo not given),1.1,-8,.,102,-0.9,i,.
O=C(COC(=O)C1CCCO1)Nc1cccc(C(F)(F)F)c1 (stereo not given),0.95,-17,-231,99,-1.7,i,57
CC(C)(C)NC(=O)CN(C(=O)C1(C)CC(=O)N=C2C=CC=CN21)C1CCCC1 (stereo not given),1,-2,.,96,-1.0,i,.
O=C(CN1C(=O)C2C3C=CC(C3)C2C1=O)NCc1ccccc1 (stereo not given),0.94,-6,-26,95,-3.4,i,205
COc1cc(CN(C(=S)NCC(=O)NC2CC2)C2CCCC2)cc(OC)c1OC,0.95,-13,13,109,-0.6,i,143
COC(=O)c1cc(C(=O)N2CCOCC2)cc([N+](=O)[O-])c1,0.92,1,.,109,.,i,.
CC(=O)NCCc1ccc(S(=O)(=O)N(C)C2CCS(=O)(=O)C2)cc1 (stereo not given),0.98,-2,17,105,-1.8,i,132
COc1cccc(/C=N/NC(=S)Nc2cccc(C(=O)O)c2)c1,0.96,-3,65,105,.,i,79
CN(Cc1n[nH]c(=S)n1C)S(=O)(=O)c1ccccc1,0.86,-2,.,92,-2.2,i,.
CCOC(=O)C(=O)C1=C(N2CCOCC2)/C(=C\c2cccc([N+](=O)[O-])c2)CC1,0.91,15,20,170,-0.1,i,69
COc1ccc(-n2c(SCC(=O)/C(C#N)=C(\C)N)nc3ccccc3c2=O)cc1OC,0.92,.,.,107,.,i,.
Cc1ccc(S(=O)(=O)NCCC(=O)NC2CCCC2)cc1,.,-2,.,100,-3.3,.,.
COc1ccc2occ(NC(C)=O)c2c1,0.88,-4,4,102,-3.0,i,130
CCOC(=O)C(NC(C)=O)(OCc1ccc(F)cc1)C(F)(F)F (stereo not given),0.86,-18,-33,97,0.1,i,75
Cc1c(C#N)c(SCC(N)=O)nc2c1CCCC2,0.87,7,-14,97,-1.9,i,90
CC(CC(=O)O)CC(=O)Nc1ccc(S(N)(=O)=O)cc1 (stereo not given),0.96,-2,5,102,-1.5,i,39
O=C(c1ccco1)N1N=C(c2cccs2)CC1c1ccco1 (stereo not given),1.2,-2,.,96,.,i,.
Cn1ncc2c(O/N=C(\N)c3ccc(C(F)(F)F)cc3)ncnc21,0.73,.,.,94,.,i,.

As entered above:
O=C(c1ccco1)N1N=C(c2cccs2)CC1c1ccco1 (stereo not given) @ HSV augment primary fold = 1.2
COc1cccc(/C=N/NC(=S)Nc2cccc(C(=O)O)c2)c1 @ PKD1 inh = -3
CC(C)C1O/C(=N/C(=O)Nc2ccc(Cl)c(Cl)c2)NC1=O (stereo not given) @ PKD1 inh = -8
CC(=O)NCCc1ccc(S(=O)(=O)N(C)C2CCS(=O)(=O)C2)cc1 (stereo not given) @ PKD1 inh = -2
CCOC(=O)C(NC(C)=O)(OCc1ccc(F)cc1)C(F)(F)F (stereo not given) @ GALR2 ag = 0.1

Returning to the listing, repeating the two entries before the break.
SMILES,HSV augment primary fold,PKD1 inh,Insulin prom inh,RGS16-Gao,GALR2 ag,HSV augment,Insulin prom inh cell count
O=C(c1ccco1)N1N=C(c2cccs2)CC1c1ccco1 (stereo not given),1.2,-2,.,96,.,i,.
Cn1ncc2c(O/N=C(\N)c3ccc(C(F)(F)F)cc3)ncnc21,0.73,.,.,94,.,i,.
CCN1CCN(C(=O)CSCc2nc(-c3ccc(OC)c(OC)c3)oc2C)CC1,.,-11,.,114,-3.2,.,.
CCN1CCN(c2nc(C)nc3c2sc(=S)n3C)CC1,0.95,-9,.,71,-1.0,i,.
CCOc1ccc(N(CC(=O)NCc2ccc(F)cc2)S(=O)(=O)c2c(C)noc2C)cc1,0.67,-4,.,97,-0.9,i,.
CSC(=NNC(=O)c1ccccc1O)SC,0.92,3,23,100,-2.7,i,131
CCc1ccccc1NC(=S)N(CCN1CCOCC1)C1CCN(C(C)=O)CC1,0.83,-1,31,100,.,i,120
COc1ccc(C(Nc2cccc([N+](=O)[O-])c2)P(=O)(OC(C)C)OC(C)C)cc1 (stereo not given),1,.,.,106,.,i,.
CCCCN(C(=O)CSc1nnc(Nc2ccccc2)s1)c1c(N)n(CCC)c(=O)[nH]c1=O,.,-1,57,109,.,.,124
COc1ccc(Cc2nnc(NC(=O)c3c(-c4ccccc4)noc3C)s2)cc1OC,.,-12,.,97,-0.7,.,.
COc1ccc(C(=O)n2cnnc2N)cc1,0.89,-8,0,104,-3.4,i,71
CC(C)(C)C(=O)COC(=O)CNC(=O)c1ccc(Oc2ccccc2)cc1,0.89,-2,-7,58,-1.4,i,109
COc1ccccc1C(=O)NCCCNc1ccc([N+](=O)[O-])cc1,0.97,-2,0,85,-1.4,i,136
COc1ccccc1N(CC(=O)NCCSC(C)(C)C)S(C)(=O)=O,.,0,.,99,-1.4,.,.
Cc1nnc2n(CCc3ccccc3)c(=O)c3c4c(sc3n12)CCCC4,.,-5,-188,.,-0.2,.,110
COc1ccc(NC(=O)C2CC(=O)OC2(C)C)cc1 (stereo not given),0.7,1,62,118,-2.8,i,83
O=C(NCc1ccco1)/C(=C/C=C\c1ccccc1)NC(=O)c1ccc(Br)o1,1.1,14,20,104,0.3,i,136
CCOC(=O)c1sc(=NC(=O)c2ccc(Cl)s2)n(C)c1C,0.9,3,.,101,.,i,.
CSc1cccc(NC(=O)CN(C)S(=O)(=O)c2ccccc2)c1,1.2,-3,-91,103,-2.6,i,120
O=C(COc1ccccc1[N+](=O)[O-])Nc1cc(Cl)ccc1C(=O)O,1,-5,.,94,.,i,.
CCN(CC)S(=O)(=O)c1ccc(C(=O)Oc2cc(C)[nH]c(=O)c2[N+](=O)[O-])cc1,1,6,-18,98,.,i,124
CC1CCN(S(=O)(=O)c2ccc(Cl)cc2)CC1,0.97,-6,.,103,-2.7,i,.
COc1cccc(-c2nnc3n2N=C(c2cc(OC)ccc2OC)CS3)c1,0.69,0,.,101,-0.7,i,.
OCCn1c(SCCOc2ccccc2F)nc2ccccc21,0.93,-4,6,107,-1.2,i,123
S=C(NCCN1CCOCC1)Nc1ccc(Cl)cc1Cl,0.88,-12,8,91,-1.6,i,60
CCOC(=O)NC(NC(=S)Nc1ccccc1OC)C(Cl)(Cl)Cl (stereo not given),0.92,-16,-18,98,-1.0,i,115
CCOc1ccc(-n2c(O)c(/C=N/NC(=O)C3COc4ccccc4O3)c3ccccc3c2=O)cc1 (stereo not given),1.1,-8,.,102,0.7,i,.
COc1ccc(NC(=O)CSc2nnc(Cc3cccn3C)n2-c2ccc(OC)cc2)cc1,1,-3,.,100,-1.1,i,.
C=CCNC(=O)c1onc(CSc2ccc(Cl)cc2)c1C(=O)O,1.1,-16,35,104,-3.1,i,90

Bioassay records from PubChem BioAssay.
